Lassa entry inh: qHTS for Inhibitors of binding or entry into cells for Lassa Virus; Potency, µM (series often up to 37.9 µM), for the others: at the top dose activity change, negative = inhibition, actives largely listed as inhibitors; 300,000 tested, 1.2% active; Lassa virus pseudotype entry inhibition, cell reporter; control for the full effect not named in the record; active means well fitted inhibition curve with a large enough effect; inconclusive means small, poorly fitted or top-dose-only effect, or effect the other way; inactive means flat fitted curve, though single readings scatter; tested in HEK293 cells; further: on the % scale 0 is the no-effect control and ±100 the full control effect; nearly all actives have a fitted effect of over 50% in size; luciferase read-out
2A StopGo: High Throughput Screening for Foot and Mouth Disease Virus Antivirals; Potency, µM (series often up to 57.9 µM), without a hit: top-dose signal change, negative = less light; human cells with a luciferase reporter of 2A StopGo recoding; control for the full effect not named in the record; 410,000 tested, 1.2% active; active = well fitted falling curve with a large enough effect; inconclusive = small, poorly fitted or top-dose-only effect; inactive = no such curve, though single readings can be large or run the other way; tested in HEK293T cells; further: on the % scale 0 is the no-effect control and ±100 the full control effect; nearly all actives have a fitted effect of over 45% in size; luciferase light after 4 h
MARV entry inh: qHTS for inhibitors of binding or entry into cells for Marburg Virus. Potency, µM (titrated, usually from 37.8 µM), without a hit: at the top dose activity change, negative = inhibition, hits mostly inhibitors. 300,000 tested, 1.8% active. Marburg virus pseudotyped entry inhibition, cell reporter; control for the full effect not named in the record; about a third of the inactives were read at about 46 µM; active = well fitted inhibition curve with a large enough effect; inconclusive = small, poorly fitted or top-dose-only effect, or effect the other way; inactive = flat fitted curve, though single readings scatter; tested in HEK293 cells; about a fifth of its hits are not listed in these tables; further: on the % scale 0 is the no-effect control and ±100 the full control effect; luciferase read-out
NS1 inh: qHTS Assay for Inhibitors of Influenza NS1 Protein Function. S. cerevisiae slowed by influenza A NS1, growth recovery by OD600. Potency, µM (series often up to 46.1 µM), for the others: top-dose activity, positive = more growth. AID 2326, 2010. 270,000 tested, 0.4% active; active means well fitted rising curve with a large enough effect; inconclusive means small, poorly fitted or top-dose-only effect; inactive means no such curve, though single readings can be large or run the other way; further: nearly all actives have a fitted effect of over 50% in size
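Read-out: OD600 growth recovery of NS1-expressing budding yeast. Cells grown overnight at 30C in -URA glucose medium, washed, resuspended and diluted 1:100 in 2% galactose assay medium, pH 6.0. Same strain lacking NS1 served as positive control.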
RE007 growth inh: qHTS Assay for Inhibitors of the HIV-1 protein Vpr; 360,000 tested, 0.21% active; Potency, µM (top dose mostly 92.2 µM), without a hit: at the highest dose activity change, negative = less growth; S. pombe RE007 Vpr strain, BacTiter-Glo ATP luminescence, 24 h; control for the full effect not named in the record; active = well fitted falling curve with a large enough effect; inconclusive = small, poorly fitted or top-dose-only effect; inactive = no such curve, though single readings can be large or run the other way;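 further: on the % scale 0 is the no-effect control and ±100 the full control effect; nearly all actives have a fitted effect of over 50% in size; the assay follows cell death caused by Vpr and the record does not say whether a fall means rescue or toxicity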
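Fission yeast RE007 carrying one integrated HIV-1 vpr copy, seeded at OD 0.01 in PMG+AL medium with 23 nL pinned compound. Grown 24 h at 30 degrees; viability read by BacTiter-Glo luminescence after 5 min.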
Cruzain Triton: qHTS Assay for Promiscuous and Specific Inhibitors of Cruzain (with detergent); purified cruzain, Z-FR-AMC fluorescence, 0.01% Triton; Cruzipain (Trypanosoma cruzi), P25779; Potency, µM, inactives show max response, negative = inhibition, usual class: inhibitors; 200,000 tested, 0.43% active; AID 1478, 2009;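 further: plate controls were neutral wells for no effect and buffer without enzyme for full effect; nearly all actives have a fitted effect of over 40% in size; top concentration of the series not given in the record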
Target sequence (P25779 123-467 limits assumed): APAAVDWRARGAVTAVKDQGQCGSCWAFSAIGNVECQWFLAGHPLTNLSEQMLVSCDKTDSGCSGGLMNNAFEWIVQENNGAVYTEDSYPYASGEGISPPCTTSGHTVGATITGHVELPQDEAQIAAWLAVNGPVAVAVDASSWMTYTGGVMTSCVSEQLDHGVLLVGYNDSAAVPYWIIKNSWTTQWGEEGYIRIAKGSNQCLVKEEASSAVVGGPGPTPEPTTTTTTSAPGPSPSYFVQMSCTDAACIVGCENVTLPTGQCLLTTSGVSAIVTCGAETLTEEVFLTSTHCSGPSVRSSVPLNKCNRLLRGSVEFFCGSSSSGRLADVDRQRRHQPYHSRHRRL
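Enzyme 1.5 nM, Z-FR-AMC 2 uM, NaOAc 100 mM pH 5.5, DTT 5 mM, Triton X-100 0.01%; 15 min RT compound preincubation; kinetic ex360/em450, 60 s delta.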
SARS PLP yeast: qHTS of Yeast-based Assay for SARS-CoV PLP | S. cerevisiae expressing SARS-CoV PLpro, growth rescue; control for the full effect not named in the record | AID 485353, 2010 | 330,000 tested, 0.19% active | Potency, µM (titrated, usually from 32.9 µM), without a hit: top-dose activity, positive = growth rescue; active means well fitted rising curve with a large enough effect; inconclusive means small, poorly fitted or top-dose-only effect; inactive means no such curve, though single readings can be large or run the other way; further: 0% is about no effect; nearly all actives have a fitted effect of over 55% in size; growth read by luminescence after 48 h
Cruzain noTriton: qHTS Assay for Promiscuous and Specific Inhibitors of Cruzain (without detergent). Cruzipain (Trypanosoma cruzi), P25779. purified cruzain, Z-FR-AMC fluorescence, no detergent. Potency, µM, without a hit: max response, negative = inhibition, most hits filed as inhibitors. 200,000 tested, 2.3% active;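 further: plate controls were enzyme without inhibitor for no effect and buffer without enzyme for full effect; nearly all actives have a fitted effect of over 40% in size; top concentration of the series not given in the record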
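Purified cruzain at 1.5 nM, pre-incubated 15 min with compound at room temperature in 100 mM sodium acetate pH 5.5, 5 mM DTT, 0.00005% Triton X-100. Reaction started with 2 uM Z-FR-AMC; AMC fluorescence increase over 60 s gives rate.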
Numbers without * were called inactive; u = inconclusive; x = no result given; & = joins results of further samples; [ ] = another dose, or the depositor's remark. Unless noted, the call rests on the fitted dose curve; in most records, active means well fitted curve in the direction sought with a large enough effect; inconclusive means small, poorly fitted or top-dose-only effect, or another doubt; inactive means no such curve, though single readings can be large; an effect the other way counts as inactive or inconclusive. Potency means the concentration at half of the fitted maximal effect.

SMILES	Lassa entry inh	2A StopGo	MARV entry inh	NS1 inh	RE007 growth inh	Cruzain Triton	SARS PLP yeast	Cruzain noTriton
COc1ccc(C2OC(=O)CC2C(=O)NC2CCCCCC2)cc1OC (stereo not given)	17%	-4%	3%	3%	2%	5.9%	3%	7%
O=C(CCn1nnc2ccccc2c1=O)N[C@@H](Cc1c[nH]c2ccccc12)C(=O)O	11%	5%	10%[46.1 µM]	0%	1%	x	1%	x
CN(C(=O)CSc1n[nH]c(-c2cccs2)n1)C1CCS(=O)(=O)C1 (stereo not given)	-3%	6%	2%	x	5%	x	3%	x
Cc1ccc(N=Nc2c(C)[nH]n(C(N)=S)c2=O)cc1	u	28%	-26%[46.1 µM]	x	-12%	x	-2%	x
CC(C)NC(=O)c1ccccc1N(Cc1ccccc1)S(C)(=O)=O	5%	-9%	7%	-1%	0%	2.1%	-4%	-4%
COCCCNC(=O)c1cn(CCOC)c(=O)c2c1c1ccccc1n2C	9%[46.1 µM]	-23%&1%	u	1%	-4%	-6.2%	-2%	2%
CCCOc1ccc(C(=O)NNC(=S)NC(C)=O)cc1	u	10%	u	-116%	u	7.3%	-13%	-1%
O=C(Nc1nc(-c2cccs2)c(-c2cccs2)s1)C1CCCC1	-1%	1%	-13%	15%	-18%	0.9%	-59%	u
CC(C1CC1)N(Cc1ccccc1)C(=O)NC(=O)c1ccccc1 (stereo not given)	-4%	23%	15%[46.1 µM]	x	2%	x	-5%	x
CC(C)c1ccc(CNC(=O)c2ccc(N3CCCC3)c(NC(=O)NCc3ccc(F)cc3)c2)cc1	u	-23%	x	x	x	-3.2%	x	3%
Cc1ccc(S(=O)(=O)NCC2CCC(C(=O)NCCc3ccccc3)CC2)cc1 (stereo not given)	9%[46.1 µM]	12%	x	x	x	-1.4%	x	-9%
CSc1ccc(C#N)cc1NC(=O)c1ccc(Cl)cc1	1%	-17%	-1%[46.1 µM]	14%	-4%	-3.2%	1%	-5%
Cc1nc(-c2ccc(F)cc2)c(CC(=O)N2CCN(S(=O)(=O)c3cccc(Cl)c3)CC2)s1	u	u	u	x	0%	x	-4%	x
COc1cc(OC)c(OC)cc1CN1CCN(C(=O)CC(C)C)CC1	-6%	-8%	3%	3%	-3%	x	-1%	x
COc1ccccc1NC(=O)c1nn(C)cc1Br	21%	-23%	9%	-70%	-21%	0.8%	-12%	6%
COc1ccc(/C(=N/Nc2ncnc3ccccc23)C(=O)O)cc1	u	58%[activator]	-14%[46.1 µM]	-17%	-3%	x	-5%	x
COc1cc(/C=N/NC(=O)CC2(C)OCCCO2)ccc1OCc1ccccc1	8%	7%	33%	-22%	-12%	-3.0%	-8%	-5%
CCOC(=O)c1c(NC(=S)Nc2cccnc2)sc(C)c1C	-2%	4%	-14%[46.1 µM]	x	3%	x	0%	x
COC(=O)c1sccc1NC(=S)Nc1cccc(F)c1	3%	36%[activator]	-26%	5%	24%	x	0%	x
CCn1c(-c2ccoc2C)n[nH]c1=S	4%	-12%	2%	-6%	-15%	3.0%	2%	-5%
Cc1cc(C)c(O)c(-c2cc(C(=O)NCCc3ccc(S(N)(=O)=O)cc3)[nH]n2)c1	u	-10%	u	-3%	-21%	x	4%	x
CNC(=O)c1ccc(Nc2nnc(-c3ccc(C)c(S(=O)(=O)N4CCCCC4)c3)c3ccccc23)cc1	-15%[46.1 µM]	15%	x	x	x	-1.2%	x	-2%
COC(=O)c1ccc(N2CCN(c3ccccc3)CC2)nc1	x	26%	x	-11%	0%	x	5%	x
Cc1ccc(/C=C2\C(=O)NC(=O)N(CCc3ccc(F)cc3)C2=O)o1	x	22µM*	1%	6%	2%	-0.3%	-10%	-3%
CC(C)(C)c1ccc(OC(=O)c2ccccc2)cc1	11%[46.1 µM]	14%	4%[46.1 µM]	0%	7%	x	1%	x
CCNC(=O)CC1C(=O)N(c2ccccc2)C(=O)N1CCOC (stereo not given)	-14%[46.1 µM]	-15%	0%[46.1 µM]	0%	2%	x	2%	x
COc1ccc(NC(=O)CSc2c(C)n[nH]c2C)cc1	9%	44%[activator]	13%	5%	17%	4.5%	-2%	-13%
NNC(=O)C1C(O)CCC2CN3CCc4c([nH]c5ccccc45)C3CC21 (stereo not given)	8%[46.1 µM]	-22%	u	x	-12%	x	x	x
COc1ccc(S(=O)(=O)N(C)c2ccc(C(=O)N3CCC(C(N)=O)CC3)cc2)cc1	0%	-6%	1%	3%	3%	6.8%	2%	6%
O=C(CSc1nnc2c(n1)[nH]c1ccccc12)Nc1ccc2c(c1)OCO2	u	u	u	20%	-3%	-6.0%	-4%	25µM*
c1ccc(Oc2ccc(-c3ccnc4nc(N5CCN(c6ccccc6)CC5)nn34)cc2)cc1	u	-17%	-3%	11%	7%[3.69 µM]	0.7%	-2%	-25%
COc1ccc(C(=O)NNC(=O)c2ccc(S(=O)(=O)N3CCCCC3)cc2)cc1	30%	-10%	7%[46.1 µM]	2%	6%	x	1%	x
COC(=O)c1ccc(CSc2nc3ccc(C)cc3[nH]2)o1	3%	-17%	10%	-14%	0%	-1.8%	-12%	-2%
CN1CCN(c2ccc(Cl)cc2NS(=O)(=O)c2ccccc2Cl)CC1	0%	-6%	u	-15%	1%	4.8%	7%	7%
O=C(c1ccc2c(c1)N(Cc1ccc(Cl)cc1)C(=O)c1ccccc1S2(=O)=O)N1CCCC1	-28%[46.1 µM]	13%	3%[46.1 µM]	x	x	-2.2%	x	u
C/C(CC(=O)Nc1ccc(Cl)c(Cl)c1)=N\NC(=O)Cc1ccccc1	-10%	6%	-19%	8%	1%	-10%	-18%	-11%
CCn1nnc2cc(C(=O)Nc3cccc(Cl)c3)ccc21	4%[46.1 µM]	18%	x	x	x	1.0%	x	-10%
CCOc1ccc(NC(=O)CCc2c(C)nc3nc(C)nn3c2C)cc1	13%[46.1 µM]	-1%	17%[46.1 µM]	x	x	0.2%	x	-6%
CC(=O)c1ccc(NC(=S)N2C(C)CCCC2C)cc1 (stereo not given)	x	x	1%	3%	x	-1.2%	u	-8%
Cc1ccc(C)c(NC(=O)Cn2c(=O)n(Cc3cccs3)c(=O)c3cccnc32)c1	x	-6%	0%[46.1 µM]	x	x	-0.8%	x	3%
Cn1c2ccccc2c2cnn(CC(=O)NCCCN3CCN(c4ccccc4F)CC3)c(=O)c21	0%[46.1 µM]	-8%&-16%	-29%&-29%[46.1 µM]	-2%	-13%	-2.4%	1%	5%
CC(=O)Nc1ccc(OC(=O)c2ccc(Cl)cc2)cc1	u	7%	-28%	-4%	33%	-3.2%	u	-4%
COCCOC(=O)c1c(C)n(C)c2ccc(OC(=O)c3cccs3)cc12	2%	22%	18%	6%	-16%	-5.8%	-7%	u
O=C(NCc1ccc(Cl)cc1)c1cc(S(=O)(=O)N2CCCCC2)c[nH]1	u	-8%&-5%	x	9%	2%	u	-2%	20µM*
NS(=O)(=O)c1ccc(N2CCNCC2)cc1	2%	-21%	1%	2%	-7%	x	0%	x
COc1ccc(C2c3sc(=O)[nH]c3SC3C(=O)N(c4ccccc4)C(=O)C32)cc1 (stereo not given)	x	0%	2%	-35%	-8%	-11%	-1%	-3%
COC(=O)c1cc(NS(=O)(=O)c2ccc3c(c2)CCC(=O)N3)cc(C(=O)OC)c1	-10%	11%	18%	1%	8%	0.9%	5%	-1%
COc1ccc(N2C(=O)C(CN3CCCCC3)C2c2ccccc2)cc1 (stereo not given)	x	-22%	x	3%	4%	x	2%	x
COC(=O)c1c(NC(=O)CN2CCC3(O)CCCCC3C2c2ccc(OC)cc2OC)sc(C)c1C (stereo not given)	-10%	0%	u	12%	-19%	u	-34%	u
CCOC(=O)c1cccc(NC(=O)CC(c2cc(OC)c(OC)c(OC)c2)N2Cc3ccccc3C2=O)c1 (stereo not given)	-3%[46.1 µM]	37%[activator]	x	x	x	-6.0%	x	u
O=c1c([N+](=O)[O-])c(NCCN2CCCCCC2)c2ccccc2n1-c1ccccc1	u	-23%	u	-2%	-9%	-0.3%	-7%	10%
Cc1cc(C)cc(C(=O)Nc2ccc3[nH]c(=O)[nH]c3c2)c1	3%	-10%	-2%	x	8%	x	4%	x
CCOC(=O)c1c(NC(=O)CC)sc2c1CCN(Cc1ccccc1)C2	x	-28%	x	-18%	-12%	x	-4%	x
CCOC(=O)c1sc2nc(C3CC3)cc(-c3ccc(F)cc3)c2c1N	u	-2%	28%	7%	11%	-9.6%	-1%	-26%
C=C1CCN(C(C(=O)OC)C(C)C)S(=O)(=O)c2ccccc21 (stereo not given)	x	-10%	x	4%	6%	x	1%	x
O=C(NCCS(=O)(=O)N1CCN(c2ccccc2)CC1)c1ccc(Br)o1	21%	-23%	9%	x	-21%	x	9%	x
COc1ccc(Cl)cc1-c1nc(N)nc(N(C)C)n1	-23%	-4%	-31%	-4%	-12%	0.4%	-2%	-8%
CC1(C)Cc2c(c(N3CCOCC3)nc3sc4c(NN)ncnc4c23)CS1	-10%	-5%	u	11%	13%	-4.4%	2%	11%
Cc1ccc(NC(=O)Cn2nc(-c3ccc(F)cc3)c3cnc4ccc(C)cc4c32)cc1	13%[46.1 µM]	6%	x	x	x	2.0%	x	5%
Cc1ccc(NC(=O)Cn2nc(-c3ccccc3Cl)ccc2=O)c(Br)c1	2%	-7%	0%	x	-4%	x	1%	x
CC(=O)c1ccc(NC(=S)NCCc2ccc(S(N)(=O)=O)cc2)cc1	u	0%	-1%[46.1 µM]	x	-9%	x	1%	x

Source: PubChem BioAssay
